Rango dissoc inh = qHTS Assay for Inhibitors of RanGTP induced Rango (Ran-regulated importin-beta cargo) - Importin beta complex dissociation | 340,000 compounds, 0.071% hits | Potency, µM (highest dose often 46.1 µM), inactives show at the top dose activity change, negative = inhibition | Biochemical FRET Rango-importin beta, RanGTP-induced dissociation | Snurportin-1 (Homo sapiens) + GTP-binding nuclear protein Ran (Homo sapiens) + Importin … | AID 540253, 2011; active means falling FRET ratio curve, often poorly fitted, with flat reads before Ran was added; inconclusive means other falling curves, or compound fluorescence or quenching; inactive means flat or rising ratio curve;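 also: potency is read from the fitted curve at half-maximal effect; % of control where 0% means no effect; nearly all actives have a fitted effect of over 45% in size; -100% = wells without RanGTP and RCC1; the record marks most hits as doubtful in a second field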
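Compounds sat 5 min at room temperature with 0.1 uM Rango biosensor plus 0.25 uM importin beta, then FRET pre-read. RanGTP-RCC1 (0.6 uM Ran, 2mM GTP, 0.2 uM RCC1) added for 45 min, and the CFP/YFP post-read measured blocked complex dissociation.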
GLA inh pH 4.5 = qHTS Assay for Inhibitors of Human alpha-Galactosidase at pH 4.5. Alpha-galactosidase A (Homo sapiens), P06280. purified enzyme, 4-MU-alpha-Gal fluorescence, pH 4.5. activity change, negative = inhibition, % at 105 µM. 230,000 tested, under 10 active. AID 1467, 2008; inconclusive = small, poorly fitted or top-dose-only inhibition, or a rising curve; inactive = flat fitted curve, though single readings scatter; no compound was filed as active;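 also: 0% = full activity with enzyme and -100% = basal without enzyme; dose as in the result columns while the protocol names 77 µM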
Rango complex inh = qHTS Assay for Inhibitors of Rango (Ran-regulated importin-beta cargo) - Importin beta complex formation. Importin subunit beta-1 (Homo sapiens), Q14974. Rango CFP/YFP FRET sensor + importin beta, 45 min. Potency, µM (doses to about 92.2 µM), for the others: at the top dose inhibition of complex formation. 340,000 compounds, 0.031% hits. AID 540263, 2011; active = rising FRET ratio curve, often small or poorly fitted; inconclusive = mostly compound fluorescence or quenching in the first reads; inactive = flat curves in all reads;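 also: potency is read from the fitted curve at half-maximal effect; 0% = DMSO wells and 100% = buffer wells lacking importin beta; nearly all actives have a fitted effect of over 15% in size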
Target sequence (Q14974 whole entry, looked up): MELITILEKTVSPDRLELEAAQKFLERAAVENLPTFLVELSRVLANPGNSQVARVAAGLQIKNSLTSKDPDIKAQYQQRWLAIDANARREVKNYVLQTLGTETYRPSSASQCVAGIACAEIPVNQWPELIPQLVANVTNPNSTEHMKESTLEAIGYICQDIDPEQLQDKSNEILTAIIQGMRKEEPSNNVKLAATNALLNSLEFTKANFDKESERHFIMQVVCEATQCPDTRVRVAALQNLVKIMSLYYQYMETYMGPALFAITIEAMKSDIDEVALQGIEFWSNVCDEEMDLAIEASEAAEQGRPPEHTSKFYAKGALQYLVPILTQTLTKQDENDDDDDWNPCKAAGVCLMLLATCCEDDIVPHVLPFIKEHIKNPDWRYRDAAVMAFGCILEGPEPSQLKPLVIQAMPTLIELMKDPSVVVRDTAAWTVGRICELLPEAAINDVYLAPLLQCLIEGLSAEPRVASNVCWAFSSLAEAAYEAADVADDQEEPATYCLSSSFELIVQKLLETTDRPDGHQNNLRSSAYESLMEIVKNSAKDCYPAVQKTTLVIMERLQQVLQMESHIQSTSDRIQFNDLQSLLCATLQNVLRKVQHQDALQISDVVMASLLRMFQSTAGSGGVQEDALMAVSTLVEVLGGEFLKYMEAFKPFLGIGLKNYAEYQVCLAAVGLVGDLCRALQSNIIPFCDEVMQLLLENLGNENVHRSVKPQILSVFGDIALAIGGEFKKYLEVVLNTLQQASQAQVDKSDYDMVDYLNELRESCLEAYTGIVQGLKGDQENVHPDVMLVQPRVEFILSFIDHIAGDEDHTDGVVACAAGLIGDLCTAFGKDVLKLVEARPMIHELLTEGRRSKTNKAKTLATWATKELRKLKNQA
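FRET biosensor Rango (snurportin 1 IBB between N-terminal EYFP and C-terminal Cerulean), 50 nM in PBS/1 mM DTT/0.02% Tween-20/0.1% BSA, preincubated 5 min RT with compound; 0.125 microM importin beta added, 45 min RT, CFP/YFP FRET ratio read.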
miR-21 reporter = qHTS Assay for Modulators of miRNAs and/orActivators of miR-21; HeLa miR-21 FLuc reporter, luciferase, 48 h; Potency, µM (doses to about 38.3 µM), for the others: top-dose reporter change, positive = more light; 340,000 tested, under 10 active; AID 2288, 2010; active = well fitted rising curve with a large enough effect; inconclusive = small, poorly fitted or top-dose-only effect; inactive = no such curve, though single readings can be large or run the other way;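 also: % of control where 0% means no effect; miR-21 action dims this reporter so a rising signal means less miR-21 action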
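HeLa cells stably expressing CMV-driven firefly luciferase with a downstream miR-21 binding sequence, endogenously expressing miR-21, were treated with titrations (up to about 40uM final) for 48 hours at 37 degree Celsius. Luciferase luminescence was read after lysis.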
Numbers without * were called inactive; ? = inconclusive; / = no result given; [ ] = dose if it differs, or a comment. The list is partial. The share of hits here may be higher or lower than overall.

SMILES	Rango dissoc inh	GLA inh pH 4.5	Rango complex inh	miR-21 reporter
CC(C)C(NC(=O)CC12CC3CC(CC(C3)C1)C2)C(=O)O (stereo not given)	0%	1	1.3%	-7%
CC(=O)c1ccc(C(=O)N2CCCC(Nc3ccc(C(C)C)cc3)C2)s1 (stereo not given)	17%	/	-1.1%	8%
CC1(C)C2CC[C@]3(C)C(CC=C4[C@@H]5C[C@@](C)(CO)[C@@H](O)C[C@]5(C(=O)O)CC[C@]43C)[C@@]2(C)CC[C@@H]1O (stereo not given in full)	2%	/	-0.2%	/
O=C(Nc1ncccc1O)c1c(O)c2ccccc2[nH]c1=O	-3%	-13	-0.5%	-5%
CCN(C(=S)Nc1ccccc1F)C1CCCCC1	1%	-11	2.7%	1%
C(=N\Nc1nc2ccccc2[nH]1)/c1c[nH]c2ccccc12	5%	-3	0.0%	23%
COc1cc(/C=N/NC(=O)c2ccncc2)cc(OC)c1OC	-9%	/	-1.2%	1%
CC(=O)c1sc(C(C)(C)C)cc1NC(=O)/C=C/C(=O)O	-18%	7	0.0%	3%
CCCc1cc(=O)oc2cc(OCC(=O)NC(Cc3c[nH]c4ccc(O)cc34)C(=O)O)c(Cl)cc12 (stereo not given)	2%	/	1.1%	-1%
CNC(=O)c1c(NC(=O)c2ccc(S(=O)(=O)N3CCCCC3)cc2)sc2c1CCN(C(C)C)C2	?	/	?	1%
CCCn1c(=N)n(CC(O)c2ccc(C)cc2)c2ccccc21 (stereo not given)	12%	-3	0.0%	5%
O=C(Nc1ccc(Cl)cc1)N1CCSC1=NCc1ccccc1	-7%	-1	-0.1%	-17%
CCOC(=O)c1c(CCl)nc2ccccc2c1-c1ccccc1	6%	-2	-1.1%	8%
COc1ccc(-c2nnc(SC(C)C(=O)NCc3ccc4c(c3)OCO4)n2Cc2ccco2)cc1 (stereo not given)	-4%	11	0.1%	0%
CCCCOC(=O)C1=C(C)Nc2nnnn2C1c1ccc(OC)c(OC)c1OC (stereo not given)	6%	6	-0.9%	-4%
Cn1cccc1/C=N\NC(=O)C1COc2ccccc2O1 (stereo not given)	12%	/	-0.1%	-5%
CC1CCCCC1NC(=O)CN1C(=O)c2ccccc2S1(=O)=O (stereo not given)	-8%	/	1.7%	-2%
CC(C)CC(NC(=O)OC(C)(C)C)C(=O)NCc1ccccc1 (stereo not given)	0%	-5	-4.8%	-7%
Nn1c(SCC(=O)NC2CCCC2)nnc1-c1ccccc1F	-4%	3	2.9%	1%
O=C(OCCN1CCCCC1)c1ccccc1Cl	-1%	-8	1.8%	-12%
O=C(Nc1cccc(C(=O)Nc2ccc(Br)cc2)c1)c1ccccc1	34%	/	-0.8%	-20%
CC(C)NC(=O)Cn1cc(C(=O)C2CC2)c2ccccc21	-21%	8	-4.1%	-3%
O=C(Nc1ccc(Cn2cccn2)cc1)c1ccc(COc2ccccc2Br)cc1	11%	-6	-0.4%	6%
O=C(Cn1cnc2ccccc2c1=O)NCCC(=O)N1CCN(Cc2ccccc2)CC1	-14%	-4	-0.2%	-3%
CCOc1ccc(Oc2cc(NC(=O)c3ccco3)cc([N+](=O)[O-])c2)cc1	-12%	2	2.0%	9%

(continued)
SMILES	Rango dissoc inh	GLA inh pH 4.5	Rango complex inh	miR-21 reporter
O=C(c1ccccc1Cl)N1N=C(c2cccs2)CC1c1cccc(O)c1 (stereo not given)	-15%	/	-4.3%	6%
CN1C(=O)C(Cl)(Cl)C(=O)c2ccccc21	15%	1	-0.5%	-2%
Oc1ccc2ccccc2c1Br	14%	-1	0.1%	1%
COC(=O)c1ccc2[nH]c(CO)c(-c3ccccc3)c2c1	-3%	/	-5.4%	0%
N#Cc1c(-c2ccccc2)nc2n(c1=O)CCS2	31%	4	0.8%	0%
CCCCc1nc(N2CCOCC2)c(C#N)c2c1CCCC2	-17%	5	6.7%	-6%
CCOC(=O)c1[nH]c2ccc(F)cc2c1NC(=O)C(C)N1CCc2cc(OC)c(OC)cc2C1 (stereo not given)	7%	-7	0.8%	21%
CC(C)C1=C2OC(N)=C(C#N)C(C#N)=C2C(C)CC1 (stereo not given)	?	2	?	-32%
Cc1ccc(S(=O)(=O)Cc2ccc(C(=O)N3CCCCCC3)o2)cc1	3%	-16	-0.3%	1%
CCOc1ccc(N2C(=O)c3ccccc3C2O)cc1 (stereo not given)	1%	3	?	-43%
CCCn1nnc(NC(=O)c2cc3ccccc3o2)n1	1%	-14	2.3%	-29%
O=C(NCc1cccs1)c1ccc(Cl)s1	6%	5	2.2%	-19%
CCOC(=O)C1(Cc2cccc(Cl)c2)CCCN(C(=O)c2ccoc2C)C1 (stereo not given)	6%	/	-4.2%	1%
CC1=C(C(=O)NCCN2CCN(C)CC2)C2(CCC(C)CC2)OC1=O (stereo not given)	-5%	7	-0.4%	-5%
O=C(CN1C(=O)CC(c2ccco2)Sc2ccccc21)Nc1ccc2c(c1)OCCO2 (stereo not given)	-5%	2	6.0%	1%
CCOCCCNC(=O)c1ccc(N2CC3CC(C2)c2cccc(=O)n2C3)c(NC(=O)Nc2cccc(OC)c2)c1 (stereo not given)	3%	/	1.1%	-2%
O=C(N/N=C/c1sc(N2CCOCC2)nc1-c1ccccc1)c1ccccc1F	?	0	3.4%	-11%
CC(C)(C)Nc1nc(-c2ccccn2)nc2ccccc12	-1%	/	58µM*	?
COc1cc(C(=O)Nc2cc(S(=O)(=O)N3CCOCC3)ccc2N2CCOCC2)ccc1OC(F)F	6%	/	1.6%	/
CCOC(=O)N1CCC(NC(=O)c2sc(-n3cccc3)nc2C)CC1	-1%	5	0.7%	-7%
O=C(c1ccc(Br)o1)N1CCCc2ccccc21	2%	0	-4.8%	-28%
O=C1COc2ccc(C(=O)COC(=O)c3cc(S(=O)(=O)N4CCOCC4)ccc3F)cc2N1	6%	/	-2.0%	-1%
Cc1ccc(NC(=O)CN(C)Cc2nc3c(Br)cc(Br)cc3c(=O)[nH]2)cc1	-14%	-7	?	-5%
COc1cc(CNc2ccc3[nH]c(=O)[nH]c3c2)ccc1OCC(=O)NC(C)(C)C	1%	-6	0.6%	-7%
O=C(NCCCC1CCCC1)C1CCC(=O)N(Cc2cccc(F)c2)C1 (stereo not given)	-11%	/	-2.2%	1%

Some of the entries so far, as labelled records:
> CCOC(=O)N1CCC(NC(=O)c2sc(-n3cccc3)nc2C)CC1
  Rango dissoc inh = -1%; GLA inh pH 4.5 = 5; Rango complex inh = 0.7%; miR-21 reporter = -7%

> CC1=C(C(=O)NCCN2CCN(C)CC2)C2(CCC(C)CC2)OC1=O (stereo not given)
  Rango dissoc inh = -5%; GLA inh pH 4.5 = 7; Rango complex inh = -0.4%; miR-21 reporter = -5%

> O=C(NCc1cccs1)c1ccc(Cl)s1
  Rango dissoc inh = 6%; GLA inh pH 4.5 = 5; Rango complex inh = 2.2%; miR-21 reporter = -19%

> N#Cc1c(-c2ccccc2)nc2n(c1=O)CCS2
  Rango dissoc inh = 31%; GLA inh pH 4.5 = 4; Rango complex inh = 0.8%; miR-21 reporter = 0%

Following part
SMILES	Rango dissoc inh	GLA inh pH 4.5	Rango complex inh	miR-21 reporter
CC(C)CCNC(=O)CCn1nc(-c2ccc(Cl)cc2)ccc1=O	22%	/	-3.7%	-2%
CC(C)c1ccc(CN2CCC(C(=O)NCc3cccnc3)CC2)cc1	6%	-10	-0.4%	-4%
O=C(CCc1ccc(S(=O)(=O)NCc2ccccc2)cc1)NCc1ccc2c(c1)OCO2	2%	-8	-2.7%	-3%
CCOC(=O)c1sc(=S)n(CC)c1NC(=O)c1ccccc1	1%	-2	3.1%	1%
O=C(O)C1CCN(S(=O)(=O)c2ccc(N3CCC(O)CC3)c([N+](=O)[O-])c2)CC1	4%	/	2.5%	-3%
N#C/C(C(=O)Nc1ccc(Cl)cc1)=C(/S)Nc1ccccc1	-15%	/	0.7%	-11%
CCOc1cc(/C=N/N2CCOCC2)ccc1OCc1ccc(C(=O)OC)o1	1%	-4	-2.4%	-2%
COc1cccc(NC(=O)COC(=O)CCCc2c[nH]c3ccccc23)c1	6%	-4	1.0%	-6%
CCC1S/C(=C(\C#N)C(=O)NCc2ccco2)N(c2ccc(Br)cc2)C1=O (stereo not given)	-12%	-6	-0.8%	0%
CC(C)c1ccc(OCCCCN2CCCCC2)cc1	10%	/	2.4%	-18%
CC(NCc1cccc(S(=O)(=O)N(C)C)c1)c1ccc(F)cc1 (stereo not given)	19%	-2	-3.8%	-2%
O=C(NNC1CC(=O)N(c2ccccc2)C1=O)c1ccccc1Cl (stereo not given)	-2%	-3	6.5%	-2%
CCOC(=O)C1=C(c2ccccc2)NC(SC)=C(C#N)C1c1cccnc1 (stereo not given)	18%	-7	4.8%	1%
Cc1nn(C)c(C)c1CCC(=O)N1CCCC(N2CCN(c3ccc(F)cc3)CC2)C1 (stereo not given)	8%	/	-0.2%	-4%
CCn1c2ccccc2c2cc(NC(C)=O)ccc21	-9%	3	0.2%	-12%
CCCCN(CC)CCNc1c(N2CCN(C(=O)OCC)CC2)c(=O)c1=O	-4%	7	-3.1%	4%
Cc1ccc(NC(=O)NCCCN2CCCC2=O)c(C)c1	1%	/	1.0%	-4%
c1ccc(Nc2n[nH]nc2-c2ccccc2)cc1	5%	-5	0.8%	-9%
CC(=O)Oc1ccc(C(=O)Nc2cccnc2)cc1	-6%	/	-1.7%	-1%
COc1ccc(-n2c(C)nc3sc4c(c3c2=O)CCC4)cc1	-4%	0[21.1 µM]	-0.7%	-4%
Cc1noc(C)c1CSCC(=O)Oc1ccc(N(C)S(=O)(=O)c2ccccc2)cc1	-9%	/	-1.3%	/
COc1ccc(C(=O)NCc2cc(C)nc3ccccc23)cc1OC	-7%	-5	0.2%	17%
CC1(C)CC(=O)C2=C(C1)N(c1ccc(F)cc1)C(=O)CC2c1ccccc1 (stereo not given)	-16%	4	-3.2%	3%
COc1ccccc1Nc1nc(N)nc(CN2CCN(c3ccccc3F)CC2)n1	-2%	0	0.4%	-6%
O=S(=O)(c1cccc(NC(=S)NCc2ccco2)c1)N1CCOCC1	16%	9	-5.0%	-3%

Later entries.
SMILES	Rango dissoc inh	GLA inh pH 4.5	Rango complex inh	miR-21 reporter
CC(C)c1cc(-c2n[nH]c(=S)n2Cc2ccccc2)cs1	17%	-4	0.8%	2%
O=C(COc1ccc(Br)cc1F)Nc1nnc(C2CC2)s1	-2%	/	-6.0%	/
Cc1ccc(CONC(=O)c2ccc(C)cc2)cc1	-9%	/	0.6%	/
COc1ccccc1NC(=S)N/N=C1\CC(C)(C)Oc2ccc(O)cc21	1%	2[21.1 µM]	-0.4%	26%
Cc1ccc(C(=O)CSc2nc3ccccc3c(=O)n2N)o1	-1%	-3	0.0%	-26%
COc1ccc(S(=O)(=O)N2CCN(Cc3cccnc3)CC2)cc1	6%	/	5.6%	0%
O=C(NCCCN1CCOCC1)c1ccc2c(c1)N(Cc1c(F)cccc1Cl)C(=O)CS2	-10%	/	-3.4%	5%
COc1ccc(C)cc1S(=O)(=O)N(C)CC(=O)Nc1ccc2c(c1)OCO2	-12%	1	0.8%	-2%
Cc1ccc(O)c(CNc2nc3ccccc3n2C)c1	13%	?	-2.6%	-45%
O=C(NC(=S)Nc1c(F)cc(F)cc1Br)c1ccc2c(c1)OCCO2	15%	0	0.0%	-20%
Cc1cccc(NC(=S)/N=C(\N)Nc2nc(C)c3ccccc3n2)c1	-7%	5	-0.7%	0%
NC(=O)c1cnn2c(-c3cccc(C(F)(F)F)c3)ccnc12	5%	-2	-0.3%	-4%
Cc1nn(CC(=O)N2N=C(C(F)F)CC2(O)C(F)F)c(C)c1[N+](=O)[O-] (stereo not given)	-1%	-7	3.4%	-8%
